PKD1 inh – inhibitors of human PKD1 kinase, biochemical, fluorescence polarization; PKD1 kinase fluorescence polarization assay; inhibition, %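 (about 10 µM by stock and volumes)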; Serine/threonine-protein kinase D1 (Homo sapiens), Q15139; 0.056% of 200,000 active; AID 797, 2007;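 active = inhibition of 50% or more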;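 note: controls were vehicle for no effect and a reference inhibitor for full effect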
GALR2 ag – GALR2 receptor agonists, primary screen, cell-based | Galanin receptor type 2 (Homo sapiens), O43603 | GALR2-expressing cells, agonist activation read-out | activation, %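 (tested at 5 µM)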 | 0.48% of 140,000 active | AID 803, 2007;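 active = above mean plus 3 SD of all compounds, about 5% in these data, not always enough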;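 note: 0% = vehicle buffer wells and 100% = reference agonist at full effect; tested in CHO reporter cells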
Target sequence (O43603 whole entry, looked up): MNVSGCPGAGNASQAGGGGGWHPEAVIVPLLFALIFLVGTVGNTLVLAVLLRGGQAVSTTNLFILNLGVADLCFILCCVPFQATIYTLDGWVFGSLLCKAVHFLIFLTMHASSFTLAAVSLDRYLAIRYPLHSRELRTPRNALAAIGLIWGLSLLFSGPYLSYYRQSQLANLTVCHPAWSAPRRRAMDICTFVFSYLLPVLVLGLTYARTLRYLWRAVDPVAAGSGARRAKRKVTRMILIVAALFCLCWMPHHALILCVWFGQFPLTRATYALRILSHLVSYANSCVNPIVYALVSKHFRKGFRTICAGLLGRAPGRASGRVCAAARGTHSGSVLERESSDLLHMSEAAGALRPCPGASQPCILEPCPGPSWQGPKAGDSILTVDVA
Insulin prom inh – inhibitors of insulin promoter-driven GFP, primary screen, imaging, TRM-6 cells (human fetal islet line), eGFP reporter, cell count. inhibition, % at 2 µM. reporter expression induced with tamoxifen. 0.9% of 130,000 active. AID 1273, 2008;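 active = inhibition above the mean plus 3 SD, with well images judged a real hit on visual review, cut at about 60% in these data, passing the limit was not always enough; inconclusive = inhibition over the cutoff but images rejected on review; inactive = inhibition not above the cutoff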
RGS16-Gao – modulators of RGS16 binding to Galphao, primary screen, biochemical, human proteins, multiplexed bead flow cytometry. Regulator of G-protein signaling 16 (Homo sapiens) + Guanine nucleotide-binding protein …. bead-based flow cytometry RGS16-Galphao binding, fluorescence; actives lie on both sides. binding response (% of control), % at 10 µM. 0.38% of 220,000 active;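 active = below 25% or above 175%, edge rows of some plates excepted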;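 note: Galphao activated by GDP with aluminum fluoride before binding; 100% = wells without compound and 0% = beads without RGS; some results beyond the cut were filed as inactive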
HSV augment – enhancers of HSV replication in host cells, fold increase, host cell viability; HSV replication augmentation in cells; maximum fold increase; 0.005% of 220,000 active; AID 1956, 2009;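 active = peak rise of 1.5-fold or more in the series; inconclusive = self-fluorescent or not available for retest; tested in PC3 cells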;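 note: first round at 10 µM; read as green reporter fluorescence; hits show the peak of a series up to 25 µM; 1 = signal of infected wells without compound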
Insulin prom inh cell count – further read-out of Insulin prom inh, marked with its call; normalized cell count, %; measured here: cell count, toxicity; reference of the scale not given here;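 cells exposed to compound for 48 h; stained nuclei by imaging scaled within each plate; lower means fewer cells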
HSV augment primary fold – further read-out of HSV augment, marked with its call; fold increase; compound at 10 µM; measured here: primary screen fold increase 10 uM; tested in PC3 cells;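 GFP signal in the first replicate; 1 = infected wells without compound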
An asterisk follows results filed as active; i = inactive; ? = inconclusive; nt = not tested or not shown.

The opening two entries as a preview:
Values run as follows: Insulin prom inh cell count, PKD1 inh, Insulin prom inh, GALR2 ag, HSV augment, RGS16-Gao, HSV augment primary fold
CN(C)S(=O)(=O)c1ccc(C(=O)OCc2ccc(C#N)cc2)cc1
 : nt, -17, nt, -1.2, i, 109, 0.97
CN(CCNC(=O)c1cn(C)c2ccc(S(=O)(=O)N3CCCC3)cc2c1=O)CCc1ccccc1
 : nt, -9, nt, -1.3, i, 103, 0.88

The listing, from the first entry:
Values run as follows: Insulin prom inh cell count, PKD1 inh, Insulin prom inh, GALR2 ag, HSV augment, RGS16-Gao, HSV augment primary fold
CN(C)S(=O)(=O)c1ccc(C(=O)OCc2ccc(C#N)cc2)cc1
 : nt, -17, nt, -1.2, i, 109, 0.97
CN(CCNC(=O)c1cn(C)c2ccc(S(=O)(=O)N3CCCC3)cc2c1=O)CCc1ccccc1
 : nt, -9, nt, -1.3, i, 103, 0.88
COc1ccccc1-c1ccc(=O)n(CC(=O)NC2CCc3ccccc32)n1 (stereo not given)
 : 96, 1, -75, nt, i, 103, 0.92
CC(=O)OCC(=O)c1ccc2ccn(C(C)=O)c2c1
 : 66, -2, 29, -1.2, i, 107, 0.95
CCC12CSc3nc(Cl)ccc3N1C(=O)C(=O)N2C (stereo not given)
 : nt, nt, nt, nt, i, 103, 1.1
O=C(NCc1cccnc1)c1sc2cc(Cl)ccc2c1Cl
 : 94, 6, 51, 0.8, i, 94, 0.99
CC(=O)N(c1cccc(Cl)c1)c1nc(C)cc(C)c1C#N
 : nt, nt, nt, nt, i, 95, 0.89
CC1Cc2ccccc2N1C(=O)/C=C/c1cccc(F)c1 (stereo not given)
 : 123, -1, -36, nt, i, 117, 0.95
CC1CN(C)C(C)CC1NCc1ccc2c(c1)OCO2 (stereo not given)
 : nt, 3, nt, -2.0, i, 100, 1.1
Cc1ccc(C(=O)ONc2ccc(N=NC(=O)c3ccccc3O)cc2)cc1
 : 66, 0, 14, -0.9, i, 100, 0.96
CN(C)S(=O)(=O)c1cccc(C(=O)OCC(=O)c2c(N)n(C)c(=O)n(C)c2=O)c1
 : 155, -4, -36, nt, i, 127, 0.91
CCOC(=O)c1ccc(NC(=S)NCCCN2CCCCC2)cc1
 : 98, 0, 3, -2.1, i, 106, 0.86
CCOc1ccc(CCNC(=O)CN2CCN(Cc3ccccc3F)C2=O)cc1OCC
 : 71, -6, 2, -0.3, i, 103, 0.98
COc1ccc(-n2c(SCC(=O)Nc3nc(C)cs3)nnc2-c2ccoc2C)cc1
 : 144, -6, 31, -2.0, i, nt, 0.93
CCCCCCn1c(N2CCN(c3cccc(Cl)c3)CC2)nc2c1c(=O)[nH]c(=O)n2C
 : 140, 2, -36, -0.2, i, 96, 0.84
O=S(=O)(c1ccccc1C(F)(F)F)N1C=CC(C(F)(F)F)=NCC1
 : nt, nt, nt, nt, i, 101, 1.2
COc1cccc(C2=NOC(C(=O)NCc3ccc(F)cc3)C2)c1 (stereo not given)
 : 58, -8, -100, -2.1, nt, 101, nt
Brc1ccc(N=Cc2ccccn2)cc1
 : 108, 0, 14, -0.9, i, 104, 0.96
Cc1n[nH]c(C)c1Sc1ccccc1N
 : 52, -6, -19, nt, i, 98, 0.86
CCC1=C(OC(=O)N(CC)CC)N2C(=O)OC(=NCCc3c[nH]c4ccccc34)[C@]2(Cc2ccccc2)[C@H]2C1=CC[C@H]1C(=O)N(CC)C(=O)[C@H]12
 : nt, nt, nt, nt, i, 98, 1

Fetched by structure from the list above, 3 records:
Values run as follows: Insulin prom inh cell count, PKD1 inh, Insulin prom inh, GALR2 ag, HSV augment, RGS16-Gao, HSV augment primary fold
COc1cccc(C2=NOC(C(=O)NCc3ccc(F)cc3)C2)c1 (stereo not given)
 : 58, -8, -100, -2.1, nt, 101, nt
CC1Cc2ccccc2N1C(=O)/C=C/c1cccc(F)c1 (stereo not given)
 : 123, -1, -36, nt, i, 117, 0.95
CN(C)S(=O)(=O)c1cccc(C(=O)OCC(=O)c2c(N)n(C)c(=O)n(C)c2=O)c1
 : 155, -4, -36, nt, i, 127, 0.91

(cont.)
Values run as follows: Insulin prom inh cell count, PKD1 inh, Insulin prom inh, GALR2 ag, HSV augment, RGS16-Gao, HSV augment primary fold
CCn1c(-c2ccc(F)cc2)cnc1SCC(=O)N1CCc2ccccc21
 : 123, 0, -57, -0.8, i, 96, 1
CC(C)(C)OC(=O)NCCCCc1cn(CC(=O)N2CCN(C(=O)OC(C)(C)C)CC2)nn1
 : nt, 5, nt, nt, i, 96, 1
CC(C)c1ncc(C(O)c2cccc3ccccc23)n1C (stereo not given)
 : 227, -5, -44, -1.2, i, 103, 1
COCc1ccc(O)c2ncccc12
 : 90, -1, 10, -1.1, i, 104, 0.78
N#Cc1ccc(CSc2nnc3ccccn23)cc1
 : 70, -3, 36, nt, i, 101, 0.95
CCOC(=O)c1[nH]c(C)c(C(=O)OCC(=O)N2CC(=O)Nc3ccccc32)c1C
 : nt, 8, nt, 0.4, i, 114, 0.68
CC(C)CSc1nc2ccccc2n1CC(N)=O
 : 102, -5, 33, -0.3, i, 106, 1
Cc1ccc(Oc2ncc(CN3CC(C)OC(C)C3)s2)cc1 (stereo not given)
 : 103, -15, -50, -3.1, i, 101, 1
O=C(CSc1nc2[nH]ncc2c(=O)n1-c1ccccc1Cl)N1CCCC1
 : nt, -2, nt, nt, i, 101, 0.78
O=C(NCCc1ccccc1)C(=O)NCC1(c2ccccc2)CCCC1
 : 108, -5, -3, -1.7, i, 97, 0.9
CC(C)OC(=O)CN1C(=O)S/C(=C/c2ccc(N3CCCCC3)o2)C1=O
 : 144, -9, -170, -3.4, ?, 126, nt
O=C(COc1ccccc1)NCC(=O)N/N=C/c1ccco1
 : 162, 1, 26, -1.1, i, 110, 1.1
CCC(CC)C1C(C#N)=C(N)Oc2n[nH]c(C)c21 (stereo not given)
 : 44, -1, 23, -1.4, i, 96, 0.69
O=C(O)C1C2C=CC(C2)C1C(=O)N1CCc2ccccc21 (stereo not given)
 : 53, -9, -73, -2.5, i, 97, 0.9
COC(=O)CCCC(=O)N1CCCC(CNS(=O)(=O)c2ccc(OC)cc2)C1 (stereo not given)
 : nt, 1, nt, nt, i, 110, 1.1
CCOCCc1nnc(NC(=O)CSc2ccccc2)s1
 : 40, -4, 8, 3.0, i, 76, 0.76
CCOC(=O)C1CCN(C2CC(=O)N(c3ccc(OCC)cc3)C2=O)CC1 (stereo not given)
 : 158, -5, 4, -2.8, i, 131, 1.1
O=C(CSc1nc2ccccc2o1)NCC(=O)c1ccccc1
 : nt, 5, nt, -1.3, i, 56, 1.1
COc1ccc(NS(=O)(=O)c2ccc3nc(COc4ccc(C#N)cc4)[nH]c3c2)cc1
 : 68, -9, 13, 1.2, i, 78, 0.92
CO/N=C(\Cn1ncc(N2CCCC2)c(Br)c1=O)c1ccc(Cl)cc1
 : 84, -1, -9, -0.8, i, 106, 0.98

A different layout for four compounds above:
COCc1ccc(O)c2ncccc12
- Insulin prom inh cell count = 90
- PKD1 inh = -1
- Insulin prom inh = 10
- GALR2 ag = -1.1
- HSV augment = i
- RGS16-Gao = 104
- HSV augment primary fold = 0.78
N#Cc1ccc(CSc2nnc3ccccn23)cc1
- Insulin prom inh cell count = 70
- PKD1 inh = -3
- Insulin prom inh = 36
- GALR2 ag = nt
- HSV augment = i
- RGS16-Gao = 101
- HSV augment primary fold = 0.95
CCOC(=O)c1[nH]c(C)c(C(=O)OCC(=O)N2CC(=O)Nc3ccccc32)c1C
- Insulin prom inh cell count = nt
- PKD1 inh = 8
- Insulin prom inh = nt
- GALR2 ag = 0.4
- HSV augment = i
- RGS16-Gao = 114
- HSV augment primary fold = 0.68
CC(C)CSc1nc2ccccc2n1CC(N)=O
- Insulin prom inh cell count = 102
- PKD1 inh = -5
- Insulin prom inh = 33
- GALR2 ag = -0.3
- HSV augment = i
- RGS16-Gao = 106
- HSV augment primary fold = 1

High-throughput results deposited in PubChem by several laboratories.
